Compound activity from PubChem BioAssay.
VACV Venus inh: inhibitors of vaccinia virus (Venus reporter) | Vaccinia virus Venus reporter expression, fluorescence | Potency, µM (highest dose often 36.5 µM), inactives show top-dose activity change, negative = inhibition, most hits filed as inhibitors | hit rate 0.46% among 330,000 | AID 720580; active means well fitted inhibition curve with a large enough effect; inconclusive means small, poorly fitted or top-dose-only effect; inactive means no such curve, though single readings can be large or run the other way; tested in A549 cells; further: nearly all actives have a fitted effect of over 30% in size; inactives centre near -10
Vaccinia mCherry: vaccinia inhibition (mCherry reporter); AID 720579; Vaccinia virus mCherry reporter infection, fluorescence; about a quarter of the inactives have no number; hit rate 0.63% among 310,000; Potency, µM (series often up to 36.5 µM), for the others: top-dose activity change, negative = inhibition, most hits filed as inhibitors; active = well fitted inhibition curve with a large enough effect; inconclusive = small, poorly fitted or top-dose-only effect; inactive = no such curve, though single readings can be large or run the other way; tested in A549 cells; further: nearly all actives have a fitted effect of over 35% in size; inactives centre near -10
An asterisk follows results filed as active; i = inactive; ? = inconclusive; · = not tested or not shown; [ ] = remark or other dose. On the % scale 0 is the no-effect control and ±100 the full control effect; potency means the concentration at half of the fitted maximal effect. The order is random. About 0.87% of those tested had a hit in this group.

A first look:
SMILES	VACV Venus inh	Vaccinia mCherry
COc1ccc(Cc2n[nH]c(=S)n(N)c2=O)cc1	-3%	-2%
CCn1c(=O)cc(N2CCN(C(=O)c3ccco3)CC2)[nH]c1=O	-4%	-13%
COc1ccc(C(CC(=O)c2ccc(O)cc2)S(=O)(=O)c2ccc(C)cc2)cc1 (stereo not given)	-11%	-26%

Main list, from the first entry:
SMILES	VACV Venus inh	Vaccinia mCherry
COc1ccc(Cc2n[nH]c(=S)n(N)c2=O)cc1	-3%	-2%
CCn1c(=O)cc(N2CCN(C(=O)c3ccco3)CC2)[nH]c1=O	-4%	-13%
COc1ccc(C(CC(=O)c2ccc(O)cc2)S(=O)(=O)c2ccc(C)cc2)cc1 (stereo not given)	-11%	-26%
O=C(Nc1cc(F)ccc1F)c1ccc2c(=O)n3c(nc2c1)CCC3	-13%	8%
COc1ccccc1CCC(=O)OC(C)C(=O)Nc1c(C)n(C)n(-c2ccccc2)c1=O (stereo not given)	-12%	-22%
Cc1csc(SCC(=O)NC2CCC(C)CC2)n1 (stereo not given)	-11%	i
Cc1cc(Nc2ccccc2)nn1C(=O)c1ccccc1	-18%	-21%
Cc1onc(-c2ccccc2)c1C(=O)N/N=C/c1ccco1	-7%	-18%
Cn1ncc2nc(SCC(=O)Nc3ccc(Br)cc3F)n(Cc3ccccc3)c(=O)c21	-9%	-14%
Cc1nc2ccccc2c(=O)n1NC(=O)/C=C/c1ccc(Br)cc1	-16%	6%
Cc1ccc(NC2SC(=O)N(CC(=O)O)C2=O)cc1 (stereo not given)	-10%	-12%
CCOCC(=O)Nc1nc2ccc(OC)cc2s1	-9%	·
O=C(COc1ccc(-n2cnnn2)cc1)Nc1cccc(Cl)c1Cl	-13%	i
COc1ccc2c(c1)c1nnc(SCC(=O)N3CCCCC3C)nc1n2C (stereo not given)	-12%	-10%
COc1ccc(O)c(CN2CCOc3c(cc(-c4cccc(OC)n4)cc3OC)C2)c1	-5%	-15%
CC1CCN(C(=O)c2[nH]cnc2C(=O)Nc2nccs2)CC1	-7%	-10%
CCN(C(=O)COC(=O)/C=C/c1ccc(O)c(OC)c1)C1CCS(=O)(=O)C1 (stereo not given)	-1%	-14%
Cc1nc2ccn(Cc3ccco3)c(=O)c2cc1C(=O)NCc1ccc(Cl)cc1	-9%	-10%
COc1ccc(-c2cc(-c3ccccc3)nc(=O)[nH]2)cc1	-7%	-9%
O=[N+]([O-])c1ccc(N2CCOCC2)c2cccnc12	-28%	-14%
COc1cccc(-n2c(Cn3nc(C(F)(F)F)cc3C)n[nH]c2=S)c1	-6%	i
COc1ccc(NS(=O)(=O)c2ccc(SC)cc2)cc1	-20%	-2%
N#CC(C#N)c1ccnc2ccccc12	-17%	-9%
CC(C)C(C)NC(=O)COC(=O)/C=C/c1ccc(S(=O)(=O)N2CCc3ccccc32)cc1 (stereo not given)	1%	-3%
COc1cc(C(=O)Nc2ccc(NC(=O)c3ccc(Br)cc3)cc2)cc(OC)c1OC	3%	-6%
CC(C)(C)c1ccc(OCC(=O)NNC(=O)c2cccnc2)cc1	-19%	-4%
O=C(N/N=C/c1cccnc1)c1cccc(S(=O)(=O)Nc2cccc(Cl)c2)c1	-6%	1%
CCCN(C(=O)C1=COCCO1)c1c(N)n(Cc2ccccc2)c(=O)[nH]c1=O	-3%	-15%
CNC(=O)C1(CC(C)C)C=CCN1C(C)=O (stereo not given)	-6%	i
CCOC(=O)[C@H]1[C@H]2COc3ccc(Br)cc3[C@@H]2N2C(=O)c3ccc(C)cc3NC(=O)[C@@]12C	-8%	i
O=C(NCC(=O)N(c1ccccc1)C(C(=O)NC1CCCCC1)c1ccncc1)c1ccco1 (stereo not given)	-7%	-13%
COc1cc2nc(N3CCCC(O)C3)c(CNCc3ccccc3F)cc2c(OC)c1OC (stereo not given)	7%	-12%
COC(=O)c1ccc2c(c1)SC1=C(CCCC1=O)N2	128%[activator]	-20%
Cc1c(C=C2C(=O)NC(=O)NC2=O)c(=O)n(-c2ccccc2)n1C	0%	11%
CNC[C@@H]1Oc2ccc(NS(=O)(=O)c3ccc(Cl)cc3)cc2C(=O)N([C@H](C)CO)C[C@@H]1C	-7%	i
O=C(COC(=O)CCc1ccccc1)Nc1cc([N+](=O)[O-])ccc1F	17%	-20%
COc1cc(C2N(C)C(=O)c3ccccc3N2C)ccc1O (stereo not given)	-10%	-12%
O=C(N/N=C/c1c(O)n(CCc2ccc(F)cc2)c(=O)[nH]c1=O)c1ccncc1	-6%	1%
O=C(O)c1cc(C(=O)C2CCCCC2)c[nH]1	0%	i
CC1Oc2ccccc2N(CC(=O)N2CCc3ccccc32)C1=O (stereo not given)	-9%	-4%
O=C(CN1C(=O)S/C(=C/C=C/c2ccccc2)C1=O)Nc1ccc(C(=O)O)cc1	3%	-15%
O=C(Nc1nccs1)c1ccc2ccccc2n1	15%	-5%
CCOc1ccc(S(=O)(=O)Nc2ccc3c(c2)N(C(C)=O)CCC3)cc1	-16%	i
O=C(CN1CCOCC1)Nc1c(-c2ccccc2)c2cc(Br)ccc2[nH]c1=O	-16%	-19%
COc1ccccc1NC(=O)CSc1nc2[nH]ncc2c(=O)[nH]1	-2%	-16%
Cc1ccccc1-c1cccc([C@@H]2C[C@H]3[C@H](CON3C)CN2S(=O)(=O)c2ccccc2C)c1	-7%	-23%
CCCS(=O)(=O)NCc1c(C)ncc2c1CCN(C(=O)c1c(F)ccc(F)c1F)C2	7%	-1%
COCc1c(C(=O)N2CC3CCC2C3)cnn1-c1nccc(-c2ccccc2OC)n1 (stereo not given)	-9%	-20%
CC(C)Oc1cccc(C(=O)Nc2ccc3oc(-c4cccc(Cl)c4)nc3c2)c1	-16%	-29%
CC1Cc2ccccc2N1C(=O)CSc1nnc(C2CC2)n1C (stereo not given)	-4%	-5%
The results go on:
SMILES	VACV Venus inh	Vaccinia mCherry
O=C(Nc1ccccc1Cc1ccccc1)c1ccncc1	-3%	i
Cc1ccc(S(=O)(=O)N2CCN(c3ccc([N+](=O)[O-])c(Sc4nncn4C)c3)CC2)cc1	-18%	?
N=c1n(CCN2CCCCC2)c2ccccc2n1CC(O)c1ccco1 (stereo not given)	-18%	-28%
N#CCC(=O)Nc1ccc(C(=O)OCC(=O)Nc2cccc(C(F)(F)F)c2)cc1	-17%	-15%
CCSC1=N/C(=C\c2ccc(C)s2)C(=O)S1	-8%	-14%
Cc1oc(-c2ccc(C(=O)NCc3ccccc3F)cc2)nc1COc1ccccc1	-13%	-19%
COc1ccc(OC)c(S(=O)(=O)NC(C)(C)C)c1	0%	0%
Cc1ccc(S(=O)(=O)N(CCC#N)CCN2CCCC2)cc1	-14%	i
CCn1ncc(C2C(C(=O)Nc3ccc(C)cn3)=C(C)NC3=C2C(=O)CCC3)c1C (stereo not given)	-5%	i
CSc1ncnc2c1ccn2CC(=O)Nc1ccc(C)c(C)c1	?	-12%
COCCCNC(=O)c1c[nH]c2ccc(S(=O)(=O)N3CCC4(CC3)OCCO4)cc2c1=O	-5%	i
O=S1(=O)CC(O)C(NCc2cccnc2)C1 (stereo not given)	-8%	-9%
O=c1oc2ccccc2c(NC(c2ccccc2)c2ccccc2)c1[N+](=O)[O-]	-14%	-2%
CC(C)(C)[C@H]1C=C(C(N)=O)O[C@@H](OCc2ccc(CO)cc2)C1	-10%	i
CN(C)CC(=O)Nc1cc(C(F)(F)F)ccc1Cl	-9%	i
CCOC(=O)/C(=C/c1ccc(Cl)cc1)NC(=O)c1ccco1	-14%	-21%
Cc1ccc(/C=C/C(=O)NC(=S)N2CCN(C)CC2)cc1	-6%	-13%
CSC[C@H](NC(=O)COc1cc2c(c3oc(=O)c(C)c(C)c13)CCC(C)(C)O2)C(=O)O	-5%	-13%
CCOc1ccccc1/C=N/NC(=O)CNC(=O)COc1ccccc1	-10%	-11%
CCOc1ccccc1C(=O)N[C@H](C(=O)OCc1cc(=O)oc2cc(C)ccc12)C(C)C	?	?
CC(=O)N1CCc2cc(S(=O)(=O)N3CC(C)CC(C)C3)ccc21 (stereo not given)	1%	-2%
COc1ccc(C2=NOC3(CC(=O)N(c4ccc(F)cc4)C3=O)C2)cc1 (stereo not given)	24%	0%
Cc1ccc(CNC(=O)c2nn(C)c3c2CS(=O)(=O)c2ccccc2-3)cc1	-7%[7.34 µM]	-3%
COc1ccc(-c2coc3c(C(=O)NCCN(C)C)cccc23)c(C)c1	-12%	i
Cc1nc(N2CCC(C)CC2)c2nnn(Cc3ccccc3)c2n1	-27%	·
COCC1CCN(C(=O)c2cc(COc3ccc(OC)c4ccccc34)on2)C1 (stereo not given)	-7%	-5%
Cc1cc(C)n(-c2ccc(C(=O)OCC(=O)c3ccc(Br)s3)cc2)n1	3%	-14%
Cc1ccc(/C=N/NC(=O)CCCOc2ccc(Cl)cc2Cl)cc1	?	?
CC(C)(C)OC(=O)N(CCc1ccccc1)Cc1cccc(OCc2cccc(NC(=O)C3CCCC3)c2)c1	-10%	i
CC(C)=CCC/C(C)=C/CNC(=O)C[C@H]1C[C@H](C(=O)N(C(C)C)C(C)C)[C@@]2(C)c3[nH]c4cc(-c5ccco5)ccc4c3CCN2C1=O	?	10µM*
COc1ccc(C)cc1N/C(N)=N/c1nc(C)cc(C)n1	-22%	?
COc1ccc(-c2coc3cc(OC(C)=O)c(OC)cc3c2=O)cc1	0%	-8%
Cn1c(CNC(=O)CNC(=O)c2cccc(Cl)c2)cc(=O)n(C)c1=O	-5%	i
Cc1ccc(/C=C/S(=O)(=O)NCC(=O)OCC(=O)NCc2ccccc2)cc1	-3%	-13%
O=C(Nc1cccc(F)c1)c1ccc2c(c1)OCCO2	0%	-10%
O=C(NCCCN1CCN(c2cccc(Cl)c2)CC1)c1ccc(N2CCCC2=O)cc1	-13%	i
CC(C)(O)CN(C(=O)c1ccccc1)C1CCCCC1	8%	-15%
Cc1ccc(CNS(=O)(=O)c2ccc3c(c2)CC(C)N3C(=O)C2CCC2)cc1 (stereo not given)	-5%	-4%
C=CCNC1=C(Cl)C(=O)c2ccccc2C1=O	13µM*	?
COc1cccc(-c2ccc(SCc3ccccn3)nn2)c1	-4%	-11%
Cc1sc2ncnc(NCC(c3ccco3)N3CCCC3)c2c1C (stereo not given)	-17%	·
Cc1ccc(C(=O)NCCCc2ccccc2)c(C)c1	-1%	1%
CC(=O)Nc1ccc(S(=O)(=O)NNC(=O)CCc2ccccc2)cc1	-10%	i
C=C1C(=O)OC2C1C(OC(=O)C(C)=CC)CC(=C)C1C(O)C3OC3(C)C21O (stereo not given)	-15%	-1%
Cc1cc(=O)n2nc(N3CCC(C(=O)Nc4ccc(Br)cc4F)CC3)sc2n1	-6%	14%
O=C(CSc1n[nH]c(C2CCCC2)n1)NC1CCCC1	-13%	-2%
CC1(C(=O)NS(=O)(=O)c2ccc(F)cc2F)CCN1C(=O)CC1CC1 (stereo not given)	-2%	23%
CN1CCN(C(=O)/C(=C/c2cccs2)NC(=O)c2ccco2)CC1	-3%	i
CN(C)S(=O)(=O)c1cccc(-c2nn(-c3ccccc3)cc2/C=C(\C#N)c2nc3ccccc3[nH]2)c1	14%	15%
CSCC[C@H](NC(=O)C1CCN(S(=O)(=O)c2ccc(C)cc2C)CC1)c1nc2ccccc2[nH]1	?	-24%

Reprinted at random: four entries already listed.
SMILES	VACV Venus inh	Vaccinia mCherry
COCC1CCN(C(=O)c2cc(COc3ccc(OC)c4ccccc34)on2)C1 (stereo not given)	-7%	-5%
C=CCNC1=C(Cl)C(=O)c2ccccc2C1=O	13µM*	?
CN(C)CC(=O)Nc1cc(C(F)(F)F)ccc1Cl	-9%	i
Cc1cc(C)n(-c2ccc(C(=O)OCC(=O)c3ccc(Br)s3)cc2)n1	3%	-14%

Some values from above.
Value for CC(=O)Nc1ccc(S(=O)(=O)NNC(=O)CCc2ccccc2)cc1 in VACV Venus inh: -10%
Value for Cc1sc2ncnc(NCC(c3ccco3)N3CCCC3)c2c1C (stereo not given) in VACV Venus inh: -17%
Value for CN(C)S(=O)(=O)c1cccc(-c2nn(-c3ccccc3)cc2/C=C(\C#N)c2nc3ccccc3[nH]2)c1 in VACV Venus inh: 14%
Value for CC1(C(=O)NS(=O)(=O)c2ccc(F)cc2F)CCN1C(=O)CC1CC1 (stereo not given) in VACV Venus inh: -2%

Next records:
SMILES	VACV Venus inh	Vaccinia mCherry
COc1ccc(C(c2oc(CO)cc(=O)c2O)c2oc(CO)cc(=O)c2O)cc1OC	-4%	i
c1ccc2c(N3CCCCCC3)nc(-c3ccncc3)nc2c1	-25%	-29%
CC(=O)OC[C@H]1O[C@@H](Sc2cccc3cccnc23)[C@H](OC(C)=O)[C@@H](OC(C)=O)[C@@H]1OC(C)=O	-17%	-14%
COc1cc(NC(=O)CCn2c(-c3ccccc3)cc(C(C)=O)c2C)cc(OC)c1	-12%	-8%
CCOC(=O)c1nnc(-c2ccc(C)cc2)nc1Sc1cccc(Cl)c1	11%	-14%
O=C(COc1ccc(S(=O)(=O)N2CCOCC2)cc1)NCc1ccccc1	7%	-8%
COc1ccc(C(C)=O)cc1CC1(C)C(=O)Nc2ccc(-c3cccc(C(F)(F)F)c3)cc21 (stereo not given)	-27%	-11%
O=C(CC1Oc2ccccc2NC1=O)NCc1ccccc1 (stereo not given)	-2%	i
COc1cccc(NC(=O)Nc2ccc3nsnc3c2)c1	-25%	-20%
O=C(CSc1nc2ccccc2nc1Cc1ccc(Cl)cc1)N1CCCc2ccccc21	-13%	-4%
CN(Cc1ccccc1)S(=O)(=O)c1ccc(Cl)c(C(=O)N2CCOCC2)c1	-10%	-2%
O=C(NCCC1=CCCCC1)C(=O)NCC(c1ccco1)N1CCN(c2ccccc2F)CC1 (stereo not given)	-8%	-4%
COc1ccc(-c2csc(NC(=S)NC(=O)c3cccs3)n2)cc1Br	-13%	-16%
